eIF4H inh: inhibitors of RNA binding by human eIF4H; Q15056; eIF4H fluorescence polarization binding assay; actives 0.94% (n = 290,000); inhibition, % at 35 µM; AID 2012;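 active means 50% or more with normal probe brightness, or confirmed in later tests; inconclusive means above 50% with abnormal brightness, or retests that disagree; inactive means below 50% or failed in later tests; about a fifth of its hits are not listed in these tables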;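 further: calls also rest on retests at 20 µM and on dose response follow-up; 0% = protein and probe with vehicle and 100% = probe without protein; strong numbers were not always called active; many hits fall short of the cut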
PABP FP inh: PABP-poly(A) binding inhibition; P11940; PABP-poly(A) RNA binding, fluorescence polarization; inhibition, % at 35 µM; actives 1% (n = 290,000);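 active means 50% or more with normal probe brightness, or confirmed in later tests; inconclusive means above 50% with abnormal brightness, or retests that disagree; inactive means below 50% or failed in later tests; about a fifth of its hits are not listed in these tables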;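 further: calls also rest on retests at 20 µM and on dose response follow-up; controls were probe without protein and protein plus probe with vehicle; some compounds called inactive have numbers as strong as hits; many hits fall short of the cut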
CSC inhib: cancer stem cell inhibition. cancer stem cell-like cells viability, luminescence. AID 2717. actives 1.1% (n = 300,000). inhibition, % at 7.5 µM;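 active means mean at 75% or more and at least half the replicates too; inconclusive means mean and replicates disagree; tested in HMLE shEcad cells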;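 further: 0% = median of negative and 100% = median of positive control wells; the first replicate is given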
HIV Env fusion: blocks HIV Env-driven cell-cell fusion; AID 651610; actives 1.1% (n = 360,000); HeLa-JRFL Env/CEM21 cell fusion, luciferase; inhibition, % at 12.3 µM;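 active means mean replicate inhibition score of at least 50 and every replicate individually at or above 50; inconclusive means only one of the two criteria met; inactive means mean below 50 and not all replicates reaching 50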;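 further: 0% = plate neutral controls and 100% = maraviroc near 300 nM; one replicate is shown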
MT1-MMP act inh: MT1-MMP (human) activation inhibition; P50281; HT1080 RFP-PRO-GFP cells, GFP/RFP ratio fluorescence, overnight; percent of plate control window, DMSO zero; GFP/RFP ratio change, % at 20 µM; actives 0.061% (n = 360,000);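 active means GFP/RFP ratio change of at least 30% with cell ATP level not reduced by more than half and red fluorescence within 50% of control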; further: strong numbers were not always called active
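Assay system: HT1080 RFP-PRO-GFP cells. Benchmarks: DMSO vehicle wells and RFP-L50D-GFP reporter cell wells. Times: overnight cell settling, then overnight compound exposure, 37 °C, 5% CO2. Compound: 20 µM single dose, 1% DMSO. Read-out basis: GFP/RFP fluorescence ratio.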
UUG fidelity: modulators of start codon recognition fidelity in yeast; S. cerevisiae UUG-firefly luciferase reporter, luminescence/redox ratio; activity score, % at 18.7 µM; actives 0.13% (n = 350,000); AID 602363;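 active means replicate mean at a twofold rise or more, about +100% in these data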;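 further: firefly luciferase made from a UUG start codon reports start codon fidelity; reporter light over untreated wells divided by growth signal over untreated wells; some hits fall short of that in this replicate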
Rce1 inhib: yeast Ras-converting enzyme inhibition. actives 0.27% (n = 290,000). calls only. Q03530. AID 2563. yeast membranes, quenched prenylated peptide cleavage fluorescence;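 active means fall in fluorescence gain of 50% or more versus controls, with final raw signal at or below 3038400; inconclusive means same 50% fall but final raw signal above 3038400; inactive means fall in fluorescence gain under 50%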;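 further: plate controls were neutral control wells for no effect and wells lacking membranes for full effect; tested at 10 µM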
Target sequence (Q03530 whole entry, looked up): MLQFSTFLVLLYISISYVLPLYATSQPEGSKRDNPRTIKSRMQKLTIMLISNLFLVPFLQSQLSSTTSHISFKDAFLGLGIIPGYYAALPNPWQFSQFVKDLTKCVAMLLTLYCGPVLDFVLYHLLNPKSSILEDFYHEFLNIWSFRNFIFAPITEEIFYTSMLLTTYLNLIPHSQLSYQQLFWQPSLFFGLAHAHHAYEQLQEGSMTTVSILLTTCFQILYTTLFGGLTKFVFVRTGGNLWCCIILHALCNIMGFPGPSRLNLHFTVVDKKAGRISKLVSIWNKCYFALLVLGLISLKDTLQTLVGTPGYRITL
eIF4H inh retest: further read-out of eIF4H inh, marked with its call; inhibition, %; compound at 20 µM; confirmation average;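 mean of two retest wells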
PABP FP inh retest: second read-out of PABP FP inh, no call of its own (marks repeat the call); inhibition, %; compound at 20 µM; confirmation repeats;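 mean of two retest wells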
MT1-MMP act inh RFP: recorded beside MT1-MMP act inh, whose call it bears; RFP signal change, %; measured here: RFP expression control read;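 0 = vehicle wells; hits needed this value within 50% of zero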
* hit, by the source's call; i = inactive; ? = inconclusive; nt = no result given.

SMILES	eIF4H inh	PABP FP inh	CSC inhib	HIV Env fusion	MT1-MMP act inh	MT1-MMP act inh RFP	UUG fidelity	Rce1 inhib	others
CCc1ccc(N2CC(C(=O)Nc3ccc(S(=O)(=O)Nc4ncccn4)cc3)CC2=O)cc1 (configuration not stated)	1	-8	nt	1	2	1	7	i
CC(NS(=O)(=O)CCNC(=O)c1ccccc1)c1ccccc1 (configuration not stated)	nt	nt	-4	-11	4	1	1	i
CCN(C[C@H]1N[C@@](CC)(C(=O)OC)[C@H]2C(=O)N(Cc3ccccc3)C(=O)[C@@H]12)S(=O)(=O)c1ccc(C(C)(C)C)cc1	nt	nt	nt	58*	-10	-11	-21	nt
COc1cccc(C2=NOC(C(=O)N3CCN(c4ccccc4)CC3)C2)c1OC (configuration not stated)	-6	1	-16	32	2	-3	-12	i
O=C(N/N=C/c1cccc([N+](=O)[O-])c1)c1ccncc1	1	-1	1	-2	9	5	-18	i
CN1CCc2nc(SC(C(=O)O)c3ccccc3)c(C#N)c(-c3cccs3)c2C1 (configuration not stated)	77*	68*	-9	-3	nt	nt	-11	i
O=C(Nc1cccc([N+](=O)[O-])c1)c1cc2ccccc2cc1O	61*	16*	89*	36	nt	nt	-23	i	eIF4H inh retest=91*;PABP FP inh retest=71*
OCC1(Cc2ccc(Cl)cc2)CCN(CC2CC=CCC2)CC1 (configuration not stated)	10	7	53	21	0	2	8	i
Cc1cc(Cl)ccc1N1C(=O)CC(NNC(=O)c2cccnc2)C1=O (configuration not stated)	5	-4	7	-6	2	0	-11	i
Cc1ccccc1/C(=N\S(=O)(=O)c1ccc(Br)cc1)Nc1ccccc1	nt	nt	nt	-2	-1	-2	-12	nt
CC(C)N(CCCNC(=O)C1CCN(C(=O)c2cc3sccc3n2C)CC1)Cc1ccccc1	49	8	12	0	1	-1	-5	i
COc1ccc(C(=O)Nc2ccc(S(=O)(=O)Nc3cc(C)nc(C)n3)cc2)cc1OC	-4	-2	-8	5	-2	2	nt	i
COc1ccc(CCNC(=O)c2ccccc2NC(=O)C2=C(C)OCCS2)c(OC)c1	-8	8	-18	12	0	-6	1	i
CC(c1ccon1)N(C)Cc1cn(Cc2ccccc2)nc1-c1ccc2c(c1)OCO2 (configuration not stated)	2	-2	-5	-3	-1	1	nt	i
COc1ccc(-c2cc3c(=O)n(CC(=O)Nc4cccc(Cl)c4)nc(C)n3n2)cc1	-3	7	-8	15	3	0	-25	i
COC(=O)c1cccc(NC(=O)CSc2nc3cccnc3n2C)c1	1	5	-1	nt	3	-9	-20	nt
CC(C)CC1(C(=O)O)NC(c2ccccc2O)C2C(=O)N(C(C)C)C(=O)C21 (configuration not stated)	2	-5	-2	-69	1	5	-11	i
CCOC(=O)c1ccc(N(CC(=O)NC2CCCC2)C(=O)CNC(=O)c2ccco2)cc1	-8	-5	-12	nt	-4	1	-9	i
CC1(C(=O)Nc2ccc(Cl)c(C(F)(F)F)c2)Cc2c(-c3ccccc3)ccnc2O1 (configuration not stated)	nt	nt	nt	-23	0	0	-5	nt
CC[C@@H]1C/C=C\Cc2ccccc2[C@H](C(=O)C[C@H](O)CC(C)=O)OC1=O	nt	nt	nt	-12	-2	4	7	nt
COc1ccc(CCNC(=O)c2cnn3cccnc23)cc1OC	2	0	4	-51	2	7	-4	i
COc1ccc(CC(=O)Nc2cccc(/C(C)=N/NC(=O)C3(C)CC3(Br)Br)c2)cc1 (configuration not stated)	-11	-7	-5	-1	3	-6	-15	i
O=C1CS/C(=C/C(=O)c2cccc(Cl)c2)N1	-7	49	-1	-19	4	13	nt	i
CCOc1ccc(C(=O)CCC(=O)N2CCN(S(=O)(=O)c3cccc(F)c3)CC2)cc1	nt	nt	-16	nt	-4	-2	-11	nt
Cc1cccnc1NC(=O)CNC(=O)C12CC3CC(CC(C3)C1)C2	nt	nt	-7	13	1	4	nt	i
CCn1nc(C(=O)NNS(=O)(=O)c2ccc(C)cc2)c2ccccc2c1=O	nt	nt	-13	10	4	-1	-10	nt
COc1ccccc1CCNC(=O)CN1C(=O)NC2(CCCC2)C1=O	nt	nt	-3	nt	-1	1	-25	i
C=CCN(C(=O)CCC(=O)Nc1cc(C)on1)C(C(=O)NC1CCCC1)c1ccc(OC)c(OC)c1 (configuration not stated)	3	4	7	4	-2	-1	-8	i
O=C(CN1CCCc2ccccc21)N/N=C/c1c(O)ccc2ccccc12	6	-15	?	20	-15	-8	nt	i
O=C(c1cc2nc(-c3ccc(F)cc3)cc(C(F)(F)F)n2n1)N1CCOCC1	-7	8	2	nt	-5	0	-22	i
Cc1c(CNCCCc2ccccc2)c(C(=O)O)c(C)n1Cc1ccccc1	0	-5	-6	-25	-2	-2	nt	i
CC1=C(C#N)c2nc(N)c(C#N)c(C)c2/C1=C\c1ccc(C)cc1	39	34	31	nt	nt	nt	nt	i
C[C@@H]1CCC[C@@]2(O[C@@H](CCO)C[C@H](O)[C@H]2O)O1	nt	nt	-12	-12	1	2	-7	i
O=C(CS(=O)(=O)c1c[nH]c2ccccc12)Nc1ccc2c(c1)OCCO2	-1	6	-9	-6	7	6	15	i
Cc1cccc(-n2c(SCC(N)=O)nc3c(c2=O)C2(CCCC2)Cc2ccccc2-3)c1	-4	-3	5	nt	-16	-28	-17	i
Clc1cccc(OCCN2CCOCC2)c1	-4	7	-8	-62	-1	7	-20	i
CC(C)C(=O)Nc1nnc(CSCc2ccccc2F)s1	0	-6	-19	-14	-8	1	nt	i
c1ccc2c(SCc3cn4ccccc4n3)nncc2c1	1	8	nt	-29	-6	0	nt	i
COc1ccc(C(=O)Nc2c(O)ccc3ccccc23)cc1	nt	nt	1	11	13	8	32	i
CCOc1cc(NC(=S)NCc2ccco2)c(OCC)cc1NC(=O)CC	95	8	0	-9	0	1	nt	i	eIF4H inh retest=-4;PABP FP inh retest=-3
CCCC(=O)Nc1ccc(C(=O)NCCCn2ccnc2)cc1	-3	3	-6	-60	-3	-7	-11	i
CCOC(=O)N(CC)OC(=O)Nc1ccc(Cl)cc1	-14	-1	-2	nt	1	3	8	i
O=c1c2oc3ccccc3c2ncn1Cc1ccc(Cl)cc1	-4	-6	10	-1	2	1	-2	i
COc1ccc(S(=O)(=O)N[C@H](C(=O)O)C(C)C)cc1	-8	3	2	nt	0	8	-8	i
O=C(CCn1c(=S)oc2ccccc21)Nc1ccccc1Br	-4	-6	-4	-2	-5	4	-14	i
N#Cc1nc(COc2ccc(F)cc2)oc1N1CCC(Cc2ccccc2)CC1	2	-2	nt	-28	-5	-3	-16	i
CCC1NC(=O)c2cccnc2-n2c1nc1cc(C)cc(C)c1c2=O (configuration not stated)	nt	nt	nt	-28	-1	-1	2	nt
COc1ccc(CC(N)c2csc(NC(=O)C(c3ccccc3)c3ccccc3)n2)cc1 (configuration not stated)	nt	nt	nt	-70	-7	-3	2	nt
CCOc1ccc(NC(=O)c2nnn(CC(=O)Nc3ccccc3OCC)c2N)cc1	-12	-6	7	-64	3	-4	-7	i
COc1cc(N(C)C)c(NC(C)=O)cc1C(=O)O	-9	-2	-10	-37	3	9	-19	i
COC(=O)[C@H](CO)N1C(=O)[C@@H]2[C@H](C1=O)C1C=C[C@H]2C1	nt	nt	nt	13	-4	0	-22	nt
Cc1nc(C)c(C(=O)C2=C(O)C(=O)N(CCN(C)C)C2c2ccccc2)s1 (configuration not stated)	1	6	-13	nt	2	5	-10	i
CCCc1cc(=O)[nH]c(SCC(=O)N(C)CC(=O)Nc2ccc(F)cc2)n1	nt	nt	-17	7	-1	-1	3	nt
O=C(O)CC1S/C(=N/N=C/C=C/c2ccccc2[N+](=O)[O-])NC1=O (configuration not stated)	-6	-6	1	2	-2	2	-8	i
COc1cc(CN2CCC(C)CC2)ccc1OCc1ccccc1	10	-2	27	2	3	0	-2	i
Cc1ccc(OCC(O)CNC2CCCC2)c(C)c1 (configuration not stated)	4	-9	-10	-5	7	6	-7	i
O=C(Nc1nc2ccccc2s1)c1cccc(S(=O)(=O)N2CCc3ccccc32)c1	0	-2	45	-16	-13	-31	1	i
N#Cc1c(Nc2ccccc2)c(/C=N/NCCO)c[nH]c1=O	-6	9	-9	5	-2	1	nt	i
CCOc1ccc(NC(=O)CC(c2ccccc2)c2ccc(F)cc2)cc1 (configuration not stated)	-5	-17	-14	nt	-13	-9	nt	i
COc1ccc(S(=O)(=O)N2CCCCCC2)cc1C(=O)NCc1ccco1	nt	nt	-4	15	-1	0	-10	nt

A stretch from the list above, for reference:
SMILES	eIF4H inh	PABP FP inh	CSC inhib	HIV Env fusion	MT1-MMP act inh	MT1-MMP act inh RFP	UUG fidelity	Rce1 inhib	others
Cc1ccccc1/C(=N\S(=O)(=O)c1ccc(Br)cc1)Nc1ccccc1	nt	nt	nt	-2	-1	-2	-12	nt
CC(C)N(CCCNC(=O)C1CCN(C(=O)c2cc3sccc3n2C)CC1)Cc1ccccc1	49	8	12	0	1	-1	-5	i
COc1ccc(C(=O)Nc2ccc(S(=O)(=O)Nc3cc(C)nc(C)n3)cc2)cc1OC	-4	-2	-8	5	-2	2	nt	i

(listing goes on)
SMILES	eIF4H inh	PABP FP inh	CSC inhib	HIV Env fusion	MT1-MMP act inh	MT1-MMP act inh RFP	UUG fidelity	Rce1 inhib	others
Cc1ccc(S(=O)(=O)C2(C(=O)N3CCCCC3C)CC2)cc1 (configuration not stated)	-2	11	7	nt	0	3	-15	nt
Cc1cc(F)ccc1S(=O)(=O)Nc1ccccc1C(=O)NCc1cccnc1	3	24	-7	9	-1	2	nt	i
O=C(Cn1nc(C(F)F)cc1C(F)F)N/N=C/c1ccc2c(c1)OCO2	7	2	-11	7	3	1	nt	i
CCN(CC)c1ccc(NC(=O)c2cccnc2)cc1	13	-14	-4	-72	5	5	-12	i
Cc1cc(C)cc(N(C(=O)CNC(=O)c2cccs2)C(C(=O)NC2CCCC2)c2cccnc2)c1 (configuration not stated)	-5	-7	nt	13	-5	4	-7	i
O=C(Cc1ccc(Cl)cc1)NNS(=O)(=O)c1ccc([N+](=O)[O-])cc1	-9	-11	-6	6	-8	0	-23	i
COc1ccc(NC(=O)c2cnc(SC)n2-c2ccc(F)cc2)c(OC)c1	-6	4	-4	-7	-1	0	-6	i
CC(C)(C)C(=O)Nc1nnc(SCC(=O)Nc2nccs2)s1	-9	-4	-10	-2	0	2	-14	i
Cc1cc(NC(=O)c2ccc3c(c2)C(=O)N(c2cccc(C)c2C)C3=O)no1	4	2	-9	4	0	1	-5	i
CN(NC(=O)c1ccccc1)c1ncc(C(F)(F)F)cc1Cl	7	-10	-9	-10	3	4	4	i
CCN(CC(=O)Nc1c(F)cccc1F)C(=O)c1cc(S(=O)(=O)N(C)C)ccc1N1CCCC1	nt	nt	-4	-4	-7	-1	-11	i
O=C1OCCN1c1c(-c2ccccc2)c(N2CCOCC2)nc2ccccc12	nt	nt	-11	-10	-1	2	-15	i
COc1ccc(-c2[nH]ncc2CN(C)Cc2cccnc2)c(OC)c1	-1	-13	-8	4	0	4	-16	i
CCc1ccc(N2CC(C)Cn3c2nc2c3c(=O)n(CCN3CCOCC3)c(=O)n2C)cc1 (configuration not stated)	-1	-12	-11	nt	6	-1	2	i
CCC1(C)N=c2c(c(=O)n(C)c(=O)n2C)=NO1 (configuration not stated)	-9	-4	-3	nt	0	2	-7	i
COc1ccccc1NC(=S)N1CCC(NC(=O)c2ccco2)CC1	-15	-10	-12	2	2	1	nt	i

A portion of the library; rates above refer to the full screens.
